Compound activity as filed in PubChem BioAssay.
RE007 growth inh: less growth of the S. pombe RE007 Vpr strain | S. pombe RE007 Vpr strain, BacTiter-Glo ATP luminescence, 24 h; control for the full effect not named in the record | Potency, µM (titrated, usually from 92.2 µM), without a hit: top-dose activity change, negative = less growth | 0.21% of 360,000 active; active = well fitted falling curve with a large enough effect; inconclusive = small, poorly fitted or top-dose-only effect; inactive = no such curve, though single readings can be large or run the other way;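 note: % is set by controls: 0 for no effect and ±100 for the full control effect; nearly all actives have a fitted effect of over 50% in size; the assay follows cell death caused by Vpr and the record does not say whether a fall means rescue or toxicity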
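Fission yeast RE007 carrying one integrated HIV-1 vpr copy, seeded at OD 0.01 in PMG+AL medium with 23 nL pinned compound. Grown 24 h at 30 degrees; viability read by BacTiter-Glo luminescence after 5 min.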
Cruzain Triton: inhibitors of Trypanosoma cruzi cruzain with detergent; P25779; Potency, µM, without a hit: max response, negative = inhibition, hits mostly inhibitors; AID 1478; 0.43% of 200,000 active; purified cruzain, Z-FR-AMC fluorescence, 0.01% Triton;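 note: plate controls were neutral wells for no effect and buffer without enzyme for full effect; nearly all actives have a fitted effect of over 40% in size; top concentration of the series not given in the record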
Target sequence (P25779 123-467 limits assumed): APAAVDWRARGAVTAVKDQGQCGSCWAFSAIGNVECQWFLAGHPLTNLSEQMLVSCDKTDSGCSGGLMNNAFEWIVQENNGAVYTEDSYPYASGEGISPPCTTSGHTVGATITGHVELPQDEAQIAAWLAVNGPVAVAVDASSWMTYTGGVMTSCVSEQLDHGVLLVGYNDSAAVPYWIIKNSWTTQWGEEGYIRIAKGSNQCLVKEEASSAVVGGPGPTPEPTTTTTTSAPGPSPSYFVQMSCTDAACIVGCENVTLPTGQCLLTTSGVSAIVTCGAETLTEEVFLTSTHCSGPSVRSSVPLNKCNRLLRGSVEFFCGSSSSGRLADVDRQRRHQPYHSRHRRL
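Z-FR-AMC hydrolysis (2 uM substrate) by cruzain (1.5 nM) monitored kinetically at ex 360/em 450 nm after 15 min room-temperature compound exposure; 0.01% Triton X-100, pH 5.5, 5 mM DTT.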
SARS PLpro yeast: SARS-CoV PLP inhibition in yeast | S. cerevisiae expressing SARS-CoV PLpro, growth rescue; control for the full effect not named in the record | Potency, µM (top dose mostly 32.9 µM), for inactives: top-dose activity, positive = growth rescue | 0.19% of 330,000 active | AID 485353; active means well fitted rising curve with a large enough effect; inconclusive means small, poorly fitted or top-dose-only effect; inactive means no such curve, though single readings can be large or run the other way; note: 0% is about no effect; nearly all actives have a fitted effect of over 55% in size; growth read by luminescence after 48 h
Marburg entry inh: blocks Marburg virus binding to or entry into cells; Potency, µM (doses to about 37.8 µM), without a hit: at the top dose activity change, negative = inhibition, most hits filed as inhibitors; Marburg virus pseudotyped entry inhibition, cell reporter; control for the full effect not named in the record; about a third of the inactives were read at about 46 µM; 1.8% of 300,000 active; active = well fitted inhibition curve with a large enough effect; inconclusive = small, poorly fitted or top-dose-only effect, or effect the other way; inactive = flat fitted curve, though single readings scatter; tested in HEK293 cells; about a fifth of its hits are not listed in these tables; note: % is set by controls: 0 for no effect and ±100 for the full control effect; luciferase read-out
Lassa entry inh: inhibitors of Lassa virus binding or cell entry; Lassa virus pseudotype entry inhibition, cell reporter; control for the full effect not named in the record; Potency, µM (doses to about 37.9 µM), for the others: at the highest dose activity change, negative = inhibition, most hits filed as inhibitors; 1.2% of 300,000 active; active means well fitted inhibition curve with a large enough effect; inconclusive means small, poorly fitted or top-dose-only effect, or effect the other way; inactive means flat fitted curve, though single readings scatter; tested in HEK293 cells; note: % is set by controls: 0 for no effect and ±100 for the full control effect; nearly all actives have a fitted effect of over 50% in size; luciferase read-out
NS1 function inh: blocks influenza NS1 protein function. S. cerevisiae slowed by influenza A NS1, growth recovery by OD600. Potency, µM (series often up to 46.1 µM), for inactives: top-dose activity, positive = more growth. 0.4% of 270,000 active; active means well fitted rising curve with a large enough effect; inconclusive means small, poorly fitted or top-dose-only effect; inactive means no such curve, though single readings can be large or run the other way; note: nearly all actives have a fitted effect of over 50% in size
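Compounds were scored for reversing the slow growth caused by influenza A NS1 in S. cerevisiae, measured by optical density at 600 nm. Assay medium contained 2% galactose at pH 6.0; NS1-free yeast of the same strain were the positive control.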
Cruzain inh noDet: cruzain (T. cruzi) inhibition without detergent; P25779; purified cruzain, Z-FR-AMC fluorescence, no detergent; Potency, µM, for the others: max response, negative = inhibition, actives largely listed as inhibitors; 2.3% of 200,000 active; AID 1476;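 note: plate controls were enzyme without inhibitor for no effect and buffer without enzyme for full effect; nearly all actives have a fitted effect of over 40% in size; top concentration of the series not given in the record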
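Purified cruzain at 1.5 nM, pre-incubated 15 min with compound at room temperature in 100 mM sodium acetate pH 5.5, 5 mM DTT, 0.00005% Triton X-100. Reaction started with 2 uM Z-FR-AMC; AMC fluorescence increase over 60 s gives rate.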
StopGo reporter: lowers the luciferase signal of an FMDV 2A StopGo reporter | human cells with a luciferase reporter of 2A StopGo recoding; control for the full effect not named in the record | Potency, µM (top dose mostly 57.9 µM), for the others: at the highest dose signal change, negative = less light | 1.2% of 410,000 active | AID 1159524; active = well fitted falling curve with a large enough effect; inconclusive = small, poorly fitted or top-dose-only effect; inactive = no such curve, though single readings can be large or run the other way; tested in HEK293T cells; note: % is set by controls: 0 for no effect and ±100 for the full control effect; nearly all actives have a fitted effect of over 45% in size; luciferase light after 4 h
* marks the source's active call; other numbers are inactive results; ? = inconclusive; / = not tested or not shown; [ ] = dose if it differs, or a comment. Unless noted, calls come from the whole dose curve; as a rule, active = well fitted curve in the direction sought with a large enough effect; inconclusive = small, poorly fitted or top-dose-only effect, or another doubt; inactive = no such curve, though single readings can be large; an effect the other way counts as inactive or inconclusive. Potency is the fitted concentration of half-maximal effect. Rows are unselected, and some 4.7% of all compounds hit somewhere here.

The line under a structure holds: NS1 function inh, SARS PLpro yeast, StopGo reporter, RE007 growth inh, Marburg entry inh, Lassa entry inh, Cruzain inh noDet, Cruzain Triton
C#CCN1C(=O)C2C(C(=O)NC)C3C=CC2(O3)C1C(=O)NCc1ccc(OC)cc1 (stereo not given)
  12%, 8%, -10%, 2%, 5%, -2%, 3%, -1.7%
CC(C(=O)Nc1ccc(C(=O)O)cc1)N1C(=O)c2ccccc2C1=O (stereo not given)
  14%, 1%, -3%, 1%, -6%, -7%, -12%, 4.5%
COc1cc(C2C(C#N)=C(N)N(c3ccc(F)cc3)C3=C2S(=O)(=O)CC3)ccc1O (stereo not given)
  /, -3%, -4%, -21%, 25%[46.1 µM], -16%, /, /
CN(C)c1ccc(-n2cccc2)cc1
  0%, 0%, 14%, -18%, 6%[46.1 µM], 0%, /, /
CCOC(=O)N1CCC(N2C(=O)c3ccc(C(=O)Nc4cccc(OC)c4)cc3C2=O)CC1
  3%, 1%, ?, -17%, /, /, /, /
CC(=O)Nc1ccc(NCC(O)COc2ccccc2)cc1 (stereo not given)
  6%, 7%, -16%, -12%, ?, 4%, -4%, 3.0%
COc1cccc(C(=O)Nc2c3c(nn2-c2cccc(C)c2C)CS(=O)(=O)C3)c1OC
  -30%, -2%, -30%, 14%, 18µM*, -1%, 3%, -2.6%
O=C(c1ccc(Cl)c([N+](=O)[O-])c1)N1CCN(c2ccccn2)CC1
  -2%, 11%, -24%, 2%, ?, 2%, 10%, -3.7%
COC(=O)CN1C(=O)C(O)(CC(=O)c2ccc(C)o2)c2ccccc21 (stereo not given)
  2%, 3%, 1%, -7%, 8%, 3%, -4%, -1.4%
COc1ccc(OC)c(CN2CCCC(C(=O)N3CCCCC3)C2)c1 (stereo not given)
  -4%, 5%, -16%, -2%, -29%, -9%, 6%, 3.8%
COc1cc(C2Nc3ccccc3C(=O)N2NS(C)(=O)=O)c([N+](=O)[O-])cc1OC (stereo not given)
  0%, 1%, -5%, -10%, 1%, -2%, /, /
Cc1ccc(Sc2ncnc(N)c2[N+](=O)[O-])cc1
  -3%, 10%, 0%, -3%, -42%, 0%, -10%, 3.0%
O=c1c(Cl)c(NC2CC2)cnn1-c1ccccc1
  /, -5%, 62%[activator], -9%, -4%, 23%, /, /
Cc1cccc(Cn2c(SCc3ccc(C(=O)N4CCC(C)CC4)cc3)nc3ccncc32)c1
  /, /, ?, /, ?, -29%[46.1 µM], 14%, -14%
O=[N+]([O-])c1cccc(S(=O)(=O)NCCc2cn3ccccc3n2)c1
  -1%, 1%, -21%, 2%, /, /, /, /
Cc1ccc(NS(=O)(=O)c2ccc3c(c2)[C@H]2C=CC[C@H]2[C@@H](c2ccc(F)cc2)N3)cc1C
  /, /, 5%, /, -21%[46.1 µM], 6%[46.1 µM], ?, -15%
O=c1[nH]c(SCc2cccc([N+](=O)[O-])c2)nc2[nH]ncc12
  6%, 0%, -9%, 1%, /, /, /, /
O=c1ncn(-c2ccccc2C(F)(F)F)c2ncccc12
  14%, 14%, 10%, 16%, -9%, 13%, 7%, 0.5%
CC(=O)Nc1ccc(NC(=O)COC(=O)c2ccc(Cl)nc2)cc1
  /, 0%, -9%, -7%, -11%[46.1 µM], -5%, /, /
O=C(O)c1ccc(-c2nnn(Cc3ccccc3F)n2)cc1
  -41%, 0%, 4%, 7%, /, /, /, /
Cc1ccc(N(C(C)C(=O)Nc2ccc(S(=O)(=O)N3CCOCC3)cc2)S(C)(=O)=O)cc1C (stereo not given)
  -32%, -1%, -4%, 13%, ?, ?, ?, -4.5%
COc1ccccc1Oc1c(C)oc2c(CN(C)C)c(O)ccc2c1=O
  -9%, 18%, -5%, 17%, 11%, 10%, -9%, -3.9%
COCc1cc(=O)[nH]c(/N=C(\N)Nc2ccc(C)cc2)n1
  -4%, -10%, 12%, 2%, ?, 2%, 0%, 6.0%
CCOc1cc(/C=C2/SC(=Nc3ccccc3)N(Cc3cccnc3)C2=O)ccc1OCC#N
  8%, 3%, ?, 2%, ?, ?, -16%, -3.7%
COCCn1c(SCC(=O)NC2CCCC2)nnc1-c1ccncc1
  ?, -2%, 15%, 5%, -8%[46.1 µM], -2%, /, /
CC(C)CC(C(=O)O)N1C(=O)C2C3c4ccccc4C(c4ccccc43)[C@@H]2C1=O (stereo not given in full)
  3%, 0%, 0%, 5%, /, /, /, /
COc1cccc(OC)c1CN1CCCC(C(=O)c2ccccc2SC)C1 (stereo not given)
  7%, -1%, -14%, 8%, 6.3µM*, ?, /, /
Cc1cc(C(=O)CCl)c(C)n1CCc1ccc(F)cc1
  /, 22%, 28µM*, 19%, ?, ?, /, /
CCCCn1c(O)c(C(C)=NCc2cc(OC)cc(OC)c2)c(=O)[nH]c1=O
  -2%, -12%, -7%, 19%, -21%, -1%, ?, -6.2%
COc1ccc(/C=C/c2cc(=O)c3cc(Cl)ccc3o2)cc1
  -50%, -30%, -5%, -24%, ?, -25%, 1%, -12%
COc1ccc(Cl)cc1NC(=O)CCCC(=O)c1ccccc1
  -8%, -3%, -6%, -13%, 25%[46.1 µM], 8%[46.1 µM], /, /
COc1cc(C(=O)NCc2nnc(SCC(=O)NC3CCCC3)o2)cc(OC)c1OC
  17%, 1%, -1%, -7%, -11%[46.1 µM], 22%[46.1 µM], /, /
CCn1c(COc2cccc(C)c2)nnc1SCC(=O)Nc1cccc(C(=O)O)c1
  ?, -8%, -21%, 4%, 3%[46.1 µM], 0%, -3%, 2.5%
NC(=O)CC(NC(=O)c1ccccc1)c1ccc(N2CCN(c3ccc(F)cc3)CC2)c([N+](=O)[O-])c1 (stereo not given)
  8%, 3%, -26%, 4%, /, /, /, /
O=C(Oc1ccccc1)c1ccc2nccnc2c1
  -15%, -1%, 14%, 3%, -12%, 2%, 11%, 1.4%
O=C1/C(=C/N(C(=O)c2ccco2)c2ccc(Br)cc2)Sc2ccccc21
  -17%, -25%, 11µM*, -17%, ?, ?, -12%, -13%
CCc1ccc(/C=C/C(=O)c2c(C)cc(C)[nH]c2=O)cc1
  -17%, -7%, 28µM*, -1%, ?, ?, -7%, 0.1%
Cc1cc(OCC(C)C)ccc1/C(O)=C1/C(=O)C(=O)N(Cc2cccnc2)C1c1ccncc1 (stereo not given)
  1%, 18%, -12%, -9%, ?, -3%, -16%, -7.8%
COC(=O)C1=CN(Cc2ccc(F)cc2)C=C(C(=O)OC)C1c1ccc(O)c(OC)c1
  6%, 1%, -11%, -1%, /, /, /, /
Cc1ccccc1-n1nc(C(=O)O)cc1-c1ccccc1
  -1%, -3%, -12%, -10%, 4%, -8%, -1%, 12%

Overlap with the part before: five compounds, followed by the next part.
The line under a structure holds: NS1 function inh, SARS PLpro yeast, StopGo reporter, RE007 growth inh, Marburg entry inh, Lassa entry inh, Cruzain inh noDet, Cruzain Triton
O=C1/C(=C/N(C(=O)c2ccco2)c2ccc(Br)cc2)Sc2ccccc21
  -17%, -25%, 11µM*, -17%, ?, ?, -12%, -13%
CCc1ccc(/C=C/C(=O)c2c(C)cc(C)[nH]c2=O)cc1
  -17%, -7%, 28µM*, -1%, ?, ?, -7%, 0.1%
Cc1cc(OCC(C)C)ccc1/C(O)=C1/C(=O)C(=O)N(Cc2cccnc2)C1c1ccncc1 (stereo not given)
  1%, 18%, -12%, -9%, ?, -3%, -16%, -7.8%
COC(=O)C1=CN(Cc2ccc(F)cc2)C=C(C(=O)OC)C1c1ccc(O)c(OC)c1
  6%, 1%, -11%, -1%, /, /, /, /
Cc1ccccc1-n1nc(C(=O)O)cc1-c1ccccc1
  -1%, -3%, -12%, -10%, 4%, -8%, -1%, 12%
O=C(NC1CC(=O)N(c2ccc(F)cc2)C1)c1ccc(S(=O)(=O)N2CCOCC2)cc1 (stereo not given)
  /, /, -21%, /, /, -1%[46.1 µM], -3%, 0.7%
COc1ccc(NC(=O)c2oc3ccccc3c2NC(=O)C(C)(C)C)cc1
  -39%, -10%, 0%, 1%, -2%, -6%, -9%, -0.5%
COc1ccnc(N=CNOCc2ccc(Cl)cc2)c1C#N
  -6%, 1%, -3%, -5%, 5%[46.1 µM], ?, /, /
COc1ccc(C(=O)N/N=C/c2ccc(OC)c(COc3ccc(F)cc3F)c2)cc1
  9%, -2%, ?, -10%, ?, 2.2µM*, /, /
CC(COC(=O)c1ccccc1)(COC(=O)c1ccccc1)/[N+]([O-])=C/c1ccccc1
  -16%, ?, 4%, 1%, 5%, 1%, 1%, -4.0%
Clc1cc(I)cc(Cl)c1NC1=NCCN1
  -6%, /, -25%, -18%[18.4 µM], ?, ?, -3%, -2.7%
O=C(CCC(=O)c1cccs1)OCc1nnc(-c2ccccc2)o1
  -16%, -2%, 16%, 12%, 4%[46.1 µM], 4%, 2%, -4.5%
Cc1ccc(CNS(=O)(=O)c2cccc3nsnc23)cc1
  /, -2%, 3%, 4%, -5%[46.1 µM], /, /, /
c1ccc(-c2ccncn2)cc1
  /, /, -3%, 6%, -1%[46.1 µM], 0%[46.1 µM], /, /
Cc1cc(=O)oc2cc(OCC(=O)Nc3ccc(CN4CCOCC4)cc3)c(Cl)cc12
  -3%, -1%, -5%, -11%, /, /, /, /
O=C(Nc1nc2nccc(-c3ccccc3)n2n1)C(Cl)(Cl)Cl
  6%, -11%, 19%, 10%, -16%, -4%, -25%, -2.3%
COCC1CCCCN1C(=O)c1cc(COc2ccc3ncccc3c2)on1 (stereo not given)
  -17%, 1%, ?, 12%, /, /, /, /
CCOc1cc(CNCCSc2nnnn2-c2ccccc2)ccc1OC
  /, /, ?, /, ?, -5%[46.1 µM], -8%, 0.8%
